# GLA inh pH 4.5 = blocks human alpha-galactosidase A at pH 4.5 | P06280 | purified enzyme, 4-MU-alpha-Gal fluorescence, pH 4.5 | activity change, negative = inhibition, % at 105 µM | 230,000 tested, under 10 active | AID 1467; inconclusive = small, poorly fitted or top-dose-only inhibition, or a rising curve; inactive = flat fitted curve, though single readings scatter; no compound was filed as active;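 note: 0% = full activity with enzyme and -100% = basal without enzyme; dose as in the result columns while the protocol names 77 µM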
# Target sequence (P06280 whole entry, looked up): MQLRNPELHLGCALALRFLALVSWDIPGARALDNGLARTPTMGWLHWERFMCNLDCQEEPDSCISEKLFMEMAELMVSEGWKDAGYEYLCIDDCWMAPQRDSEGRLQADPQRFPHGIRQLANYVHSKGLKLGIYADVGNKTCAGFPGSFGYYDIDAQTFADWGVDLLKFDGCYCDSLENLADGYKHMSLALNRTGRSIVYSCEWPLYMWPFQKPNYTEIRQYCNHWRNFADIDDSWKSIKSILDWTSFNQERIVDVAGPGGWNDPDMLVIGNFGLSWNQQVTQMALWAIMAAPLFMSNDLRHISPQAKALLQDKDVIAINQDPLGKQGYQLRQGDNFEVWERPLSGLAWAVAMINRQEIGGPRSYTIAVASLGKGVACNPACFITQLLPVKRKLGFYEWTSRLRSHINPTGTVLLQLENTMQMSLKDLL
# Rango dissoc inh = prevents RanGTP from dissociating the Rango-importin beta complex | O95149+P62826 | Biochemical FRET Rango-importin beta, RanGTP-induced dissociation | Potency, µM (titrated, usually from 46.1 µM), inactives show top-dose activity change, negative = inhibition | actives 0.071% (n = 340,000); active means falling FRET ratio curve, often poorly fitted, with flat reads before Ran was added; inconclusive means other falling curves, or compound fluorescence or quenching; inactive means flat or rising ratio curve;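 note: potency is the fitted concentration of half-maximal effect; % of control where 0% means no effect; nearly all actives have a fitted effect of over 45% in size; -100% = wells without RanGTP and RCC1; the record marks most hits as doubtful in a second field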
#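 Compounds preincubate 5 min with complex of recombinant Rango and importin beta in PBS with 1 mM DTT. Ran (0.6 uM) loaded with 2 mM GTP plus 0.2 uM RCC1 starts dissociation; FRET is recorded 45 min later.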
# Rango complex inh = prevents formation of the Rango-importin beta complex; actives 0.031% (n = 340,000); AID 540263; Potency, µM (highest dose often 92.2 µM), without a hit: at the highest dose inhibition of complex formation; Rango CFP/YFP FRET sensor + importin beta, 45 min; Q14974; active = rising FRET ratio curve, often small or poorly fitted; inconclusive = mostly compound fluorescence or quenching in the first reads; inactive = flat curves in all reads;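 note: potency is the fitted concentration of half-maximal effect; 0% = DMSO wells and 100% = buffer wells lacking importin beta; nearly all actives have a fitted effect of over 15% in size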
#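 FRET biosensor Rango (snurportin 1 IBB between N-terminal EYFP and C-terminal Cerulean), 50 nM in PBS/1 mM DTT/0.02% Tween-20/0.1% BSA, preincubated 5 min RT with compound; 0.125 microM importin beta added, 45 min RT, CFP/YFP FRET ratio read.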
# miR-21 reporter = miR-21 reporter, rising signal. HeLa miR-21 FLuc reporter, luciferase, 48 h. Potency, µM (series often up to 38.3 µM), without a hit: at the top dose reporter change, positive = more light. 340,000 tested, under 10 active. AID 2288; active = well fitted rising curve with a large enough effect; inconclusive = small, poorly fitted or top-dose-only effect; inactive = no such curve, though single readings can be large or run the other way;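 note: % of control where 0% means no effect; miR-21 action dims this reporter so a rising signal means less miR-21 action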
#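 Luminescence from a firefly luciferase reporter carrying a miR-21 binding site downstream, stably expressed under a CMV promoter in HeLa cells that make miR-21 endogenously, reports miRNA modulation after 48 h compound exposure up to approximately 40uM final.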
# Active calls of the source: *; ? = inconclusive; . = not tested or not shown. Some of the compounds tested, so the mix of outcomes need not match the whole.
GLA inh pH 4.5	Rango dissoc inh	Rango complex inh	SMILES	miR-21 reporter
5	1%	-1.1%	CCOc1ccc(N2CC(=O)Nc3ccccc3NCC2=O)cc1	-8%
-26	27%	-2.3%	O=C1CC(SC(=Nc2ccccc2)Nc2ccccc2)C(=O)N1c1ccc(Cl)cc1 (stereo not drawn)	-3%
.	1%	-4.6%	NS(=O)(=O)c1ccc(CNC(=O)Cc2ccccc2[N+](=O)[O-])cc1	-1%
.	-17%	-1.9%	COc1ccc(CCNc2ccc(C(CC(N)=O)NC(=O)c3cc(C)cc(C)c3)cc2[N+](=O)[O-])cc1 (stereo not drawn)	-1%
5	30%	-2.5%	Cc1cc2ccccc2n1CCNCc1c(C(=O)N2CCOCC2)nc2ccccn12	-4%
-1	-4%	-2.5%	Clc1nccnc1-c1ccccc1	-7%
.	-12%	-4.7%	Cn1c(=O)c2c(ncn2CC(=O)Nc2cc(S(=O)(=O)N3CCCCC3)ccc2Cl)n(C)c1=O	.
.	-15%	-3.4%	COc1ccc(CCNC(=O)C2CCN(S(=O)(=O)c3ccc(OC)c(OC)c3)CC2)cc1OC	2%
.	16%	-0.5%	COc1ccc(N2CCN(CC(=O)Nc3ccc(C)cc3)CC2)cc1	2%
-10	-2%	-0.9%	COC(=O)CC1=NN(c2ccccc2)C(=O)C1	0%
.	15%	3.5%	O=C(NCc1cccc(C(F)(F)F)c1)N1CCN(S(=O)(=O)c2ccccc2F)CC1	-1%
-3	-16%	0.3%	COc1cc([N+](=O)[O-])cc(/C=N/NC(=O)CSc2nnc(-c3ccccc3)n2C)c1O	-7%
-4	-2%	-1.5%	CCCOC(=O)CC1C(=O)NCCN1Cc1ccc(F)cc1 (stereo not drawn)	-4%
-7	?	-0.1%	CC(=O)Oc1cc2c(C(=O)NCCN3CCOCC3)c(C)oc2c2ccccc12	-12%
-3	-15%	-1.5%	COC(=O)c1ccccc1NC(=O)C(C)Oc1ccccc1 (stereo not drawn)	-13%
.	0%	-1.2%	O=C(N/N=C/c1ccco1)C1CCCC1	-5%
11	2%	4.3%	Cc1nc2ccccc2c(=O)n1/N=C/c1cccnc1	-20%
.	-5%	2.2%	Cc1ccc(C(=O)OCC(=O)Nc2ccc3c(c2)OCO3)c(O)c1	.
.	-4%	-3.7%	N#CC1=C(N)OC2=C(C(=O)CCC2)C1c1cc2c(cc1Br)OCO2 (stereo not drawn)	1%
.	22%	-5.7%	O=C(COc1cccc(Cl)c1Cl)NC1CC1	.
-11	-25%	?	COc1ccccc1N(C)S(=O)(=O)c1ccc(C(=O)Nc2ccc3nc(C)sc3c2)cc1	28%
-3	.	.	CC12CC(NC(=O)N1c1ccc(C(=O)N3CCN(c4ccccn4)CC3)cc1)c1ccccc1O2 (stereo not drawn)	-2%
-1	0%	-3.8%	CCOc1ccc(/C=N/NC2=NCCCCC2)cc1	0%
.	-2%	-9.0%	Cc1ccccc1OCCC(=O)Nc1cc(S(=O)(=O)N2CCCCC2)ccc1N1CCN(C)CC1	.
.	-7%	1.3%	Cc1cc(C)c(C(=O)N2CCCC(N3CCN(c4cccc(C(F)(F)F)c4)CC3)C2)o1 (stereo not drawn)	24%
.	14%	-4.6%	CCc1ccccc1N(CC(=O)NC1CCCC1)C(=O)CNC(=O)c1cccs1	1%
.	-2%	-1.0%	CN(CCCC(=O)NCc1ccccc1)S(=O)(=O)c1ccc([N+](=O)[O-])cc1	4%
.	14%	-0.6%	C[C@H](CO)N1C[C@H](C)[C@@H](CN(C)C(=O)Nc2ccccc2)Oc2c(NC(=O)c3ccncc3)cccc2C1=O	.
4	-17%	-4.9%	O=C(Nn1cnnc1)C(Sc1ccccc1)c1ccccc1 (stereo not drawn)	-1%
.	-10%	0.7%	CCOc1ccc(S(=O)(=O)N2CCN(C(=O)CCC(=O)N3CCOCC3)CC2)cc1	.
4	12%	-3.2%	CC(C)COc1ccc(C2NC(=O)NC2=O)cc1 (stereo not drawn)	-8%
-2	21%	0.1%	Cn1cc(-c2nnnn2-c2cccc(C(F)(F)F)c2)c(C(F)(F)F)n1	-1%
-3	14%	0.7%	N#CC1c2ccccc2C=CN1C(=O)c1ccccc1 (stereo not drawn)	19%
.	4%	2.6%	c1ccc(OCCOCCOc2ccccc2)cc1	.
1	10%	-0.6%	O=C(c1ccc2c(c1)OCO2)C1CCCN(C(=O)C2CCOCC2)C1 (stereo not drawn)	-4%
11	0%	-1.0%	CC(Oc1ccc(-c2nccc(-c3ccccn3)n2)cc1)C(=O)NN (stereo not drawn)	-26%
1	13%	4.2%	CCOc1ccc(N(CC(=O)NCc2ccccc2OC)S(C)(=O)=O)cc1	-40%
.	-4%	1.9%	CCc1ccc(-c2nc(SCC(=O)NC3CCS(=O)(=O)C3)n[nH]2)cc1 (stereo not drawn)	.
.	19%	0.5%	Cc1nc(C)c(-c2csc(Nc3ncccc3C)n2)s1	-27%
10	?	?	CN(C)/C=C/C(=O)c1ccc(F)cc1	-25%
-7	10%	-0.4%	COc1ccccc1C(=O)C1CCCN(C(=O)CCC(=O)c2ccccc2)C1 (stereo not drawn)	1%
-1	0%	4.8%	CN(C1CCS(=O)(=O)C1)S(=O)(=O)c1ccc(C2CCCCC2)cc1 (stereo not drawn)	-1%
-4	0%	?	CSCCC(NC(=O)c1ccc(Cl)cc1)C(=O)OCC(=O)Nc1cc(Cl)ccc1C#N (stereo not drawn)	-1%
-1	6%	0.5%	Cc1csc(NC(=O)c2ccoc2C)n1	-34%
.	12%	1.6%	COc1ccc(CN2CCC(n3nccc3NC(=O)CCc3ccccc3)CC2)c(C)c1C	10%
.	-7%	-0.9%	CC(=O)N/C(=N\c1nc(C)cc(C)n1)Nc1ccc(Cl)cc1Cl	-1%
.	-5%	1.5%	CC(C)CC(=O)Nc1ccc(C(=O)COC(=O)CN2C(=O)NC3(CCCCC3C)C2=O)cc1 (stereo not drawn)	.
-10	1%	-1.1%	CCCc1n[nH]c2c1/C(=N/O)CC(c1ccccc1)C2 (stereo not drawn)	-11%
-25	-18%	2.5%	CC1CCN(C(C(=O)O)c2ccccc2)CC1 (stereo not drawn)	-2%
.	-1%	-0.9%	O=C(O)c1ccc(NC(=O)c2ccccc2NC(=O)c2cccc(Br)c2)cc1	-4%

# Sorted by heavy-atom count (high to low): six of the compounds above
GLA inh pH 4.5	Rango dissoc inh	Rango complex inh	SMILES	miR-21 reporter
.	-5%	1.5%	CC(C)CC(=O)Nc1ccc(C(=O)COC(=O)CN2C(=O)NC3(CCCCC3C)C2=O)cc1 (stereo not drawn)	.
.	14%	-4.6%	CCc1ccccc1N(CC(=O)NC1CCCC1)C(=O)CNC(=O)c1cccs1	1%
.	-2%	-1.0%	CN(CCCC(=O)NCc1ccccc1)S(=O)(=O)c1ccc([N+](=O)[O-])cc1	4%
-1	0%	4.8%	CN(C1CCS(=O)(=O)C1)S(=O)(=O)c1ccc(C2CCCCC2)cc1 (stereo not drawn)	-1%
4	-17%	-4.9%	O=C(Nn1cnnc1)C(Sc1ccccc1)c1ccccc1 (stereo not drawn)	-1%
.	4%	2.6%	c1ccc(OCCOCCOc2ccccc2)cc1	.

# Going on with the list:
GLA inh pH 4.5	Rango dissoc inh	Rango complex inh	SMILES	miR-21 reporter
.	-4%	2.4%	CC(=O)Nc1ccc(NC(=O)CSc2nnc(-c3cc4ccccc4o3)n2C)cc1	6%
2	.	.	COc1ccc(N2CCN(C(=O)c3ccc4c(c3)[nH]c(=S)n3c5ccccc5nc43)CC2)cc1	-1%
.	1%	-2.2%	CC(=O)c1ccc(OCc2cc(C(=O)N3CCC[C@H]3CO)no2)cc1	-10%
2	34%	1.2%	O=C(COC(=O)c1nc(-c2ccccc2)n(-c2cccc(C(F)(F)F)c2)n1)NCc1cccs1	-1%
0	20%	4.4%	O=C(Nc1ccc(N2CCOCC2)cc1)c1cc2ccccc2o1	-48%
3	1%	-1.0%	Cc1cc(=O)n2nc(N3CCCC3C(=O)NCc3ccccn3)sc2n1 (stereo not drawn)	-2%
9	3%	-1.3%	COC(=O)Nc1c(C)nn(Cc2ccccc2C)c1C	-4%
.	18%	0.0%	COc1ccc(N2CCN(C(=S)Nc3ccccc3OC)CC2)cc1	-6%
11	-2%	-3.0%	Cc1cc(=O)[nH]c(N2CCOCC2)n1	0%
.	24%	5.8%	O=C(CSc1ccc(Br)cc1)N1CCOCC1	-35%
.	-8%	3.6%	COc1c(C)cc(C(=O)C2CCCN(C(=O)c3cc(C)on3)C2)cc1C (stereo not drawn)	3%
-7	-10%	-2.3%	COC(=O)c1ccc(N2C(=O)CC(NCc3ccccc3)C2=O)cc1 (stereo not drawn)	-17%
-5	2%	-7.3%	COC(=O)c1c(SCC(=O)Nc2ccc(C)cc2)nc(=O)[nH]c1C	-5%
.	8%	-1.3%	C#CCOCCOCCOCCNc1nc(N2CCN(C(=O)Cn3cc(CCCN=C(N)N)nn3)CC2)nc(N2CCN(C(=O)[C@H]([C@@H](C)O)n3cc(CCCCN)nn3)CC2)n1	.
5	-5%	-6.8%	O=C(NCCc1ccc(F)cc1)Nc1ccc2c(c1)OCO2	-50%
.	19%	0.5%	Cc1ccc(NC(=O)CN(C)S(=O)(=O)c2ccc(Cl)s2)c(O)c1	.
20	-10%	-6.5%	O=C(C1CCC(CNc2c(N3CCCCC3)c(=O)c2=O)CC1)N1CCc2ccccc2C1 (stereo not drawn)	3%
-5	9%	-0.8%	O=C(NC12CC3CC(CC(C3)C1)C2)N(Cc1ccccc1)Cc1ccncc1	-17%
-7	4%	-4.9%	CCOC(=O)/C(C#N)=C/c1cn(CCC(=O)O)nc1-c1ccc(Cl)cc1	-1%
.	-10%	-3.3%	CN(c1ccccc1)S(=O)(=O)c1ccc(C(=O)NNC(=O)c2ccccc2F)cc1	.
-10	-10%	-0.5%	CS(=O)(=O)N(CC(=O)NCCSc1ccccc1)c1ccc2c(c1)OCO2	-9%
3	-2%	1.3%	Cc1ccc(S(=O)(=O)Oc2ccccc2/C=N/NC(=O)c2c(Cl)cnn2C)cc1	0%
6	2%	0.6%	O=C(CN1C(=O)C2CC=CCC2C1=O)Nc1nccs1 (stereo not drawn)	0%
5	14%	-0.7%	CCOC(=O)C1CCN(S(=O)(=O)c2ccc(OC)c(Cl)c2)CC1	2%
5	-6%	2.0%	Cc1cc2c(cc1C)CSC(c1ccc3ccccc3c1O)SC2	15%
.	8%	-1.4%	CN1C(=O)C(C)(C)c2cc(S(=O)(=O)N3CCC(C(=O)NCc4ccc(F)cc4)CC3)ccc21	1%
.	4%	-3.9%	COc1ccc(CNC(=O)COc2cc(O)c3c(c2)OC(C)(C)CC3=O)cc1	-17%
.	-2%	1.2%	CC(C)c1ccc(N(CC(=O)NC2CCCC2)C(=O)CCC(=O)Nc2ccccn2)cc1	-8%
2	16%	-6.3%	CCOc1ccc(N2CC(C(=O)Nc3ccccc3N3CCOCC3)CC2=O)cc1 (stereo not drawn)	-1%
.	-17%	2.2%	CCOc1ccc(N(CC(=O)Nc2ccc(OC)cc2OC)S(=O)(=O)c2c(C)[nH]c(=O)[nH]c2=O)cc1	0%
-5	23%	6.7%	CC(C)C(c1nnnn1Cc1ccc(F)cc1)N1CCN(c2ccc(O)cc2)CC1 (stereo not drawn)	1%
1	8%	1.9%	CCSc1cc(Cl)nc(N)n1	0%
3	10%	0.4%	Fc1ccc2c(Cl)c(-c3nnc(-c4cccs4)o3)sc2c1	-45%
.	21%	-2.8%	C#CCOCCOCCOCCNc1nc(N2CCN(C(=O)CCCCCCCCCCNC(=O)[C@H](CCCCN)n3cc(CCO)nn3)CC2)nc(N2CCN(C(=O)CCCCCCCCCCNC(=O)[C@@H]([C@H](C)O)n3cc(C)nn3)CC2)n1	.
2	8%	-2.0%	CN1CCN(C(=O)/C(=C/c2ccc(F)cc2)c2ccsc2)CC1	-9%
.	-6%	2.8%	CCC1(CC)NC(=O)N(CC(=O)OCC(=O)Nc2ccc(OC(F)(F)F)cc2)C1=O	.
.	-3%	-3.3%	COc1cccc(C(C(=O)NC(C)(C)C)N(Cc2ccc(C)cc2)C(=O)CCC(=O)Nc2cc(C)on2)c1OC (stereo not drawn)	9%
.	0%	-0.5%	COc1cccc(CN2CCNC(=O)C2CC(=O)N(C)CCC2CCOCC2)c1 (stereo not drawn)	-2%

# Screening results from PubChem.
